RE007 growth inh – qHTS Assay for Inhibitors of the HIV-1 protein Vpr | S. pombe RE007 Vpr strain, BacTiter-Glo ATP luminescence, 24 h; control for the full effect not named in the record | Potency, µM (highest dose often 92.2 µM), for inactives: top-dose activity change, negative = less growth | hit rate 0.21% among 360,000; active = well fitted falling curve with a large enough effect; inconclusive = small, poorly fitted or top-dose-only effect; inactive = no such curve, though single readings can be large or run the other way;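 further: on the % scale 0 is the no-effect control and ±100 the full control effect; nearly all actives have a fitted effect of over 50% in size; the assay follows cell death caused by Vpr and the record does not say whether a fall means rescue or toxicity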
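Fission yeast strain RE007, carrying one chromosomally integrated HIV-1 vpr copy, was seeded at OD 0.01 in PMG+AL medium with 23 nL pinned compound. After 24 h at 30 °C and 99% humidity, viability was read by BacTiter-Glo luminescence.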
Cruzain inh noDet – qHTS Assay for Promiscuous and Specific Inhibitors of Cruzain (without detergent). Cruzipain (Trypanosoma cruzi), P25779. purified cruzain, Z-FR-AMC fluorescence, no detergent. Potency, µM, without a hit: max response, negative = inhibition, hits mostly inhibitors. hit rate 2.3% among 200,000. AID 1476, 2009;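 further: plate controls were enzyme without inhibitor for no effect and buffer without enzyme for full effect; nearly all actives have a fitted effect of over 40% in size; top concentration of the series not given in the record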
Target sequence (P25779 123-467 limits assumed): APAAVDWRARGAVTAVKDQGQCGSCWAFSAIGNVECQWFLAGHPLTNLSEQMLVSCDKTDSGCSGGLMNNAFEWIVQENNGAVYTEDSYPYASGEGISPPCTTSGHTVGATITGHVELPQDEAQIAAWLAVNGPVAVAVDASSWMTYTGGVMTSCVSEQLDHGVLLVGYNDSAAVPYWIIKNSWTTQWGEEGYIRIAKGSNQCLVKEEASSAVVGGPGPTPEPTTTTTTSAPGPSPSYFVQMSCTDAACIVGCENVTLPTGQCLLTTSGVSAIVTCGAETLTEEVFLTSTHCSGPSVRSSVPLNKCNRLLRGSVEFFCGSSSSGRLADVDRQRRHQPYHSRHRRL
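Purified cruzain at 1.5 nM, pre-incubated 15 min with compound at room temperature in 100 mM sodium acetate pH 5.5, 5 mM DTT, 0.00005% Triton X-100. Reaction started with 2 uM Z-FR-AMC; AMC fluorescence increase over 60 s gives rate.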
SARS PLpro yeast – qHTS of Yeast-based Assay for SARS-CoV PLP; S. cerevisiae expressing SARS-CoV PLpro, growth rescue; control for the full effect not named in the record; Potency, µM (highest dose often 32.9 µM), for inactives: at the top dose activity, positive = growth rescue; hit rate 0.19% among 330,000; AID 485353, 2010; active means well fitted rising curve with a large enough effect; inconclusive means small, poorly fitted or top-dose-only effect; inactive means no such curve, though single readings can be large or run the other way; further: 0% is about no effect; nearly all actives have a fitted effect of over 55% in size; growth read by luminescence after 48 h
Cruzain inh Det – qHTS Assay for Promiscuous and Specific Inhibitors of Cruzain (with detergent); hit rate 0.43% among 200,000; Potency, µM, for the others: max response, negative = inhibition, actives largely listed as inhibitors; Cruzipain (Trypanosoma cruzi), P25779; AID 1478, 2009; purified cruzain, Z-FR-AMC fluorescence, 0.01% Triton;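 further: plate controls were neutral wells for no effect and buffer without enzyme for full effect; nearly all actives have a fitted effect of over 40% in size; top concentration of the series not given in the record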
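Cysteine protease activity tested under reducing, mildly acidic conditions (100 mM sodium acetate pH 5.5, 5 mM DTT) plus 0.01% Triton X-100. Cruzain 1.5 nM; substrate Z-FR-AMC 2 uM; 15 min compound preincubation at room temperature.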
MARV entry inh – qHTS for inhibitors of binding or entry into cells for Marburg Virus. Marburg virus pseudotyped entry inhibition, cell reporter; control for the full effect not named in the record; about a third of the inactives were read at about 46 µM. Potency, µM (series often up to 37.8 µM), inactives show top-dose activity change, negative = inhibition, usual class: inhibitors. hit rate 1.8% among 300,000. AID 540276, 2011; active = well fitted inhibition curve with a large enough effect; inconclusive = small, poorly fitted or top-dose-only effect, or effect the other way; inactive = flat fitted curve, though single readings scatter; tested in HEK293 cells; about a fifth of its hits are not listed in these tables; further: on the % scale 0 is the no-effect control and ±100 the full control effect; luciferase read-out
StopGo reporter – High Throughput Screening for Foot and Mouth Disease Virus Antivirals; Potency, µM (doses to about 57.9 µM), for inactives: top-dose signal change, negative = less light; human cells with a luciferase reporter of 2A StopGo recoding; control for the full effect not named in the record; hit rate 1.2% among 410,000; active = well fitted falling curve with a large enough effect; inconclusive = small, poorly fitted or top-dose-only effect; inactive = no such curve, though single readings can be large or run the other way; tested in HEK293T cells; further: on the % scale 0 is the no-effect control and ±100 the full control effect; nearly all actives have a fitted effect of over 45% in size; luciferase light after 4 h
LASV entry inh – qHTS for Inhibitors of binding or entry into cells for Lassa Virus; Potency, µM (titrated, usually from 37.9 µM), for the others: at the highest dose activity change, negative = inhibition, usual class: inhibitors; hit rate 1.2% among 300,000; Lassa virus pseudotype entry inhibition, cell reporter; control for the full effect not named in the record; active means well fitted inhibition curve with a large enough effect; inconclusive means small, poorly fitted or top-dose-only effect, or effect the other way; inactive means flat fitted curve, though single readings scatter; tested in HEK293 cells; further: on the % scale 0 is the no-effect control and ±100 the full control effect; nearly all actives have a fitted effect of over 50% in size; luciferase read-out
NS1 inh – qHTS Assay for Inhibitors of Influenza NS1 Protein Function. Potency, µM (highest dose often 46.1 µM), inactives show at the top dose activity, positive = more growth. S. cerevisiae slowed by influenza A NS1, growth recovery by OD600. hit rate 0.4% among 270,000; active means well fitted rising curve with a large enough effect; inconclusive means small, poorly fitted or top-dose-only effect; inactive means no such curve, though single readings can be large or run the other way; further: nearly all actives have a fitted effect of over 50% in size
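Compounds were scored for reversing the slow growth caused by influenza A NS1 in S. cerevisiae, measured by optical density at 600 nm. Assay medium contained 2% galactose at pH 6.0; NS1-free yeast of the same strain were the positive control.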
* = called active by the depositor; ? = inconclusive; · = not tested or not shown; & = joins results of further samples; [ ] = another dose, or the depositor's remark. Unless noted, the call rests on the fitted dose curve; in most records, active means well fitted curve in the direction sought with a large enough effect; inconclusive means small, poorly fitted or top-dose-only effect, or another doubt; inactive means no such curve, though single readings can be large; an effect the other way counts as inactive or inconclusive. Potency means the concentration at half of the fitted maximal effect.

SMILES	RE007 growth inh	Cruzain inh noDet	SARS PLpro yeast	Cruzain inh Det	MARV entry inh	StopGo reporter	LASV entry inh	NS1 inh
Cc1c(CCC(=O)O)c(=O)oc2cc(O)ccc12	7%	?	0%	?	-24%	-6%	-17%	4%
CCc1c(C)nc(SCC(=O)N2CCCCC2C)[nH]c1=O (stereo unspecified)	-2%	·	1%	·	·	-4%	·	1%
CC(C)[C@H](NS(=O)(=O)c1ccccc1)C(=O)OCC(=O)Nc1ccc2c(c1)OCO2	9%	-14%	0%	-16%	8%	-5%	-1%	-20%
O=C(NC1CS(=O)(=O)CC1NCc1ccccc1)c1ccccc1 (stereo unspecified)	-5%	-1%	-3%	1.7%	-6%[46.1 µM]	0%	18%	4%
CC(C)c1ccccc1NC(=S)NCc1ccncc1	0%	·	2%	·	-15%[46.1 µM]	-10%	-9%[46.1 µM]	-3%
CN(Cc1ccccc1)C(=O)c1cc2ccccc2o1	-3%	9%	13%	0.4%	-2%	·	14%	-47%
CCC(=O)N1c2ccc(S(=O)(=O)N3CCN(c4ccc([N+](=O)[O-])cc4)CC3)cc2CC1C (stereo unspecified)	-11%	·	-5%	·	·	?	·	12%
CCN(CC)CCN1C(=O)C(O)=C(C(C)=O)C1c1ccccc1[N+](=O)[O-] (stereo unspecified)	-21%	·	-1%	·	?	11%	-7%[46.1 µM]	-8%
O=C(COC(=O)/C=C/c1cccs1)Nc1ccc(Cl)cc1F	-31%	·	-1%	·	1%	?	?	·
COc1ccc(C2C3=C(CC(C)(C)CC3=O)N(CCN3CCOCC3)C3=C2C(=O)CC(C)(C)C3)cc1	9%	·	0%	·	·	-8%	·	-2%&-5%
O=C(/C=C/c1ccc(Cl)cc1)NC1CC2CCC1C2 (stereo unspecified)	5%	·	-3%	·	?	41%[activator]	?	-47%
CCCCNC(=O)CNC(=O)c1nn(-c2ccc(OC)c(Cl)c2)c(=O)c2ccccc12	19%	·	1%	·	·	-28%	·	2%
CC(Oc1ccccc1)C(=O)Nc1cccc(-c2nc3ccccc3[nH]2)c1 (stereo unspecified)	?	-4%	-41%	0.0%	?	-20%	-27%	-59%
Fc1ccc(N=Cc2ccc[nH]2)cc1	-2%	·	-1%	·	4%[46.1 µM]	-5%	18%	2%
O=C(O)C(NC(=O)C1CCCN1C(=O)OCc1ccccc1)c1ccccc1 (stereo unspecified)	8%	·	2%	·	·	-1%	·	6%
Cc1cccc(/C=N\NC(=O)c2ccc(Cl)cc2)c1O	0%	·	-2%	·	5.6µM*	-3%	11µM*	-6%
O=C(CN1CCSC1=NCc1ccccc1)c1ccc(Cl)c(Cl)c1	-9%	0%	-14%	-4.9%	?	-12%	-2%	10%
Cn1c(=O)c2c(nc(NC3CCCCC3)n2CC(=O)C23CC4CC(CC(C4)C2)C3)n(C)c1=O	-7%	14%	-6%	-2.7%	8%[46.1 µM]	?	?	-15%
Cc1ccc(NC(=O)C(OC(=O)c2ccc(F)cc2)c2ccccc2)cc1Cl (stereo unspecified)	-6%	?	-31%	-4.2%	?	90%[activator]	5%	1%
COc1ccc(C2CC(c3cccc(OC)c3)n3nc(N)nc3N2)cc1 (stereo unspecified)	-1%	11%	0%	-1.1%	-2%	-9%	0%	7%
FC(F)(F)c1ccccc1-n1c(CN2CCCCC2)n[nH]c1=S	14%	·	2%	·	0%[46.1 µM]	2%	-20%[46.1 µM]	-7%
CCCN1C(=O)N(c2cccc(C)c2)C(C)(O)CC1(C)C (stereo unspecified)	3%	·	-1%	·	·	-16%	·	0%
COc1ccc(S(=O)(=O)N(CC(=O)NCc2cccnc2)c2ccc(C)cc2)cc1OC	2%	·	1%	·	1%	?	-10%	-2%
CCN(CC)C(=O)CC(c1ccccc1)c1ccco1 (stereo unspecified)	11%	-3%	15%	-27%	10%	0%	0%	1%
COc1ccc(NC(=O)CC(c2ccccc2)c2ccco2)cc1 (stereo unspecified)	18%	·	-1%	·	-4%[46.1 µM]	29%	-10%	-5%
C/C(=N/NC(=O)CNC(=O)c1cccnc1)c1ccc([N+](=O)[O-])cc1	-16%	·	2%	·	5%[46.1 µM]	-15%	5%[46.1 µM]	·
COc1ccc(/C=N/NC(=O)c2ccc(Br)cc2)cc1Cn1cc(Cl)cn1	5%	?	11%	-5.3%	?	-16%	-7%	2%
CCNC(=O)CN(c1ccc(F)cc1)S(=O)(=O)c1ccc2c(c1)OCCO2	0%	·	1%	·	-1%[46.1 µM]	-6%	?	-7%
C#CCn1cc(/C=N/NC(=O)COc2cccc3cccnc23)c2ccccc21	3%	-12%	1%	-1.8%	?	-16%	0%	4%
COc1ccccc1N1CCN(C(=O)C2CCN(S(=O)(=O)c3ccc4c(c3)CC(C)N4C(C)=O)CC2)CC1 (stereo unspecified)	6%	·	-1%	·	·	-21%	·	-12%
COc1ccc(C(=O)Nc2ccc(C(=O)N3CCCC3)cc2)cc1[N+](=O)[O-]	-1%	·	0%	·	2%	5%	-3%	-4%
CN(c1cccc(NC(=O)c2ccccc2N(C)S(C)(=O)=O)c1)S(C)(=O)=O	10%	8%	4%	6.6%	-7%	11%	4%	8%
COC(=O)C1CCN(Cc2ccc(C)cc2)CC1	1%	0%	-5%	4.1%	1%	-21%	-1%	-2%
CCOC(=O)C1OC1(c1ccccc1)c1ccccc1 (stereo unspecified)	12%	·	·	·	1%	47%[activator]	8%	·
N=C1c2ccccc2CN1NC(=O)c1ccc(Cl)cc1	-6%	-9%	-1%	1.4%	2%	·	14%	1%
O=C(Nc1ccc(F)cc1F)c1ccco1	1%	-3%	·	2.0%	16%	0%	11%	2%
O=C(N/N=C/c1cccc([N+](=O)[O-])c1)C1CC1c1ccccc1 (stereo unspecified)	12%	?	24%	-4.2%	?	-1%	2.2µM*	-2%
OCC1(CCc2ccccc2)CCCN(CCCC(F)(F)F)C1 (stereo unspecified)	2%	·	11%	·	·	-14%	·	-3%
Cc1ccc(-n2c(C)cc(=O)cc2C)c(C)c1	-9%	-9%	18%	-0.7%	18%	-11%	3%	7%
Cc1ccc(C(=O)Nc2cccc(C(=O)N/N=C/c3ccc(O)cc3)c2)cc1	-7%	·	3%	·	?	8%	?	-2%
Cc1ccc(N2C(=O)CSC23C(=O)N(CC(=O)Nc2ccc(C(C)C)cc2)c2ccccc23)cc1C (stereo unspecified)	·	?	·	-5.5%	·	-23%	-15%[46.1 µM]	·
CCOC(=O)C(=NC(C)(C)C)NNc1cc(Cl)ccc1Cl	263%	-4%	-40%	-6.5%	?	-5%	-3%	-43%
CC(=O)Nc1ccc(Nc2ncnc3c2cnn3-c2ccccc2)cc1	14%	4%	-2%	6.5%	?	4%	?	9%
CC(O)c1nc2ccccc2n1CCCOc1ccccc1 (stereo unspecified)	2%	·	-3%	·	-16%[46.1 µM]	-17%	-17%	-1%
CCOC(=O)Cc1csc(SCC(=O)NC2CCCC2)n1	-1%	·	5%	·	-7%	0%	-6%	·
CC(C)(C)NC(=O)CN1C(=O)NC(c2ccccc2)(c2ccccc2)C1=O	-10%	·	3%	·	6%[46.1 µM]	-13%	1%[46.1 µM]	?
CC(=O)c1ccc2c(c1)Nc1ccccc1S2	-10%	25µM*	5%	1.2%	2%	0%	9%	1%
COc1cccc(N2CCN(c3ncnc4c3c(-c3ccccc3)cn4-c3cccc(C(F)(F)F)c3)CC2)c1	·	-2%	·	1.2%	·	-21%	?	·
CCOC(=O)c1c(C)oc2ccc(OC(=O)c3cccs3)cc12	-13%	-3%	-92%	-5.6%	36%	0%	19%	-15%
Nc1c(C(=O)Nc2cccc(F)c2)c2ccccn2c1C(=O)c1ccccc1	·	1%	·	-3.9%	-1%[46.1 µM]	-13%	18%[46.1 µM]	·

Additional results follow:
SMILES	RE007 growth inh	Cruzain inh noDet	SARS PLpro yeast	Cruzain inh Det	MARV entry inh	StopGo reporter	LASV entry inh	NS1 inh
COc1ccc(OC)c2c(=O)cc(C(=O)O)[nH]c12	1%	·	0%	·	5%	-23%	7%	1%
CCCS(=O)(=O)NCCc1csc2nc(-c3ccc(C)cc3)nn12	·	2%	·	-2.9%	·	-18%	6%[46.1 µM]	·
CCCCCCCN=C(C)c1ccccc1O	6%	·	0%	·	?	-9%	3%	4%
O=C(Nc1ccccc1F)NC1CCCc2ccccc21 (stereo unspecified)	-11%	·	-3%	·	26%[46.1 µM]	-6%	-11%[46.1 µM]	-3%
Cc1cc(-c2ccc(S(=O)(=O)Nc3cccc(C)c3C)s2)on1	·	-3%	·	-10%	·	-18%	?	·
CCn1nc(NC(=O)Cc2ccc(OC)cc2)c2cc3cc(C)ccc3nc21	-1%	·	0%	·	·	10%	·	-3%
COc1ccc2c(c1)c(C(=O)N/N=C/c1ccccc1Cl)c(C)n2C	-2%	·	-7%	·	?	-7%	?	-20%
O=C(CSc1nc2ccsc2c(=O)n1Cc1ccccc1Cl)NCc1ccc(F)cc1	·	2%	·	-3.0%	13%[46.1 µM]	9%	-21%[46.1 µM]	·
O=C(C[n+]1cc(-c2ccc(F)cc2)n2c1CCC2)Nc1nc(-c2ccccc2)cs1	17%	?	3%	-7.0%	?	8%	2%	0%
O=C(OCc1cc(=O)n2nc(-c3cccs3)sc2n1)c1ccccc1Cl	·	10%	·	-2.3%	·	1%	?	·
CN1CCN(c2ccc(NC(=O)Cc3ccccc3)cc2)CC1	11%	-8%	0%	-1.8%	9%	64%[activator]	0%	-3%
CSc1cccc(NC(=O)Cn2nnc(C(=O)NCCc3ccccc3)c2N)c1	·	?	·	-0.7%	·	-15%	5%[46.1 µM]	·
